Source: PubChem (National Center for Advancing Translational Sciences (NCATS))
D2 PAM – human D2 receptor positive allosteric modulation. actives 0.23% (n = 360,000). DiscoveRx D2 beta-arrestin cells, luminescence, 90 min; 100% = 57 uM dopamine signal. potentiation, % (test concentration not listed); active = potentiation of 50% or more; inconclusive = 30% to 50%; inactive = 30% or less;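 also: compound concentration not given in the record; tested on top of an EC20 dose of dopamine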
Target sequence (P14416 whole entry, looked up): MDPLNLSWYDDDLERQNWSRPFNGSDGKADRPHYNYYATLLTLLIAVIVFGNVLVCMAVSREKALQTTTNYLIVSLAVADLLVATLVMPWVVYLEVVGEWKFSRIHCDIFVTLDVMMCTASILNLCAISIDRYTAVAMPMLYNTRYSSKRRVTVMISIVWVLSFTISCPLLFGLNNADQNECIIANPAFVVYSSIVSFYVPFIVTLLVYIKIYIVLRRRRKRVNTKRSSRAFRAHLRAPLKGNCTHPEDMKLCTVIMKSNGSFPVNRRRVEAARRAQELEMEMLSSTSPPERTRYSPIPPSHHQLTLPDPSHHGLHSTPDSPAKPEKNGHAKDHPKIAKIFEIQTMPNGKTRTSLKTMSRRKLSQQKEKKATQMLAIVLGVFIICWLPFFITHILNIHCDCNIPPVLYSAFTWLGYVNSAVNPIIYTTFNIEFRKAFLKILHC
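PathHunter D2 cells, attached overnight at 37 deg C, received compound in DMSO plus dopamine at EC20 (50 nM final) for 90 min at 37 deg C. Beta-arrestin recruitment was read as luminescence after 1 h with detection reagent at ambient temperature.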
Menin-MLL FL inh – inhibitors of human menin-MLL interaction, wild-type MLL peptide; Fluorescence polarization, fluorescein-MLL peptide displacement from menin; FP activity change, % at 61.4 µM; 290,000 tested, under 10 active; inconclusive = falling polarisation curve, or a change in total fluorescence; inactive = total fluorescence flat and polarisation flat or rising; no compound was filed as active; the % refers to the polarisation; negative = inhibition;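 also: % of control where 0% means no effect; inhibitors lower the polarisation; unlabelled MLL peptide was the positive control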
gsp agonist – gsp mutant agonism; gsp mutant cells, cAMP HTRF, 30 min; control for the full effect not named in the record; Potency, µM (titrated, usually from 76.9 µM), for the others: at the top dose activation (cAMP increase), usual class: activators; actives 0.13% (n = 340,000); AID 624287; active = well fitted activation curve with a large enough effect; inconclusive = small, poorly fitted or top-dose-only effect, or another doubt; inactive = no such curve, though single readings can be large or run the other way; cell line not stated here;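 also: phosphodiesterase inhibitor Ro 20-1724 added with compounds to block cAMP breakdown; potency is read from the fitted curve at half-maximal effect; nearly all actives have a fitted effect of over 60% in size; about a fifth of the inactives were tested at one dose only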
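Cells stably selected in G418 were plated at 2000/well, grown 16-24 hr, then given compounds in DMSO with the PDE inhibitor […] (300 uM solution added) for 30 min at 37C; cAMP was read by HTRF.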
gsp antag – gsp mutant antagonism; gsp-mutant cells, cAMP HTRF, 30 min; control for the full effect not named in the record; Potency, µM (doses to about 76.9 µM), inactives show at the top dose activity change, negative = inhibition, actives largely listed as inhibitors; AID 624288; actives 0.4% (n = 340,000); active = falling curve of any shape with a large fitted effect; inconclusive = falling curve, mostly with a smaller effect; inactive = flat or rising curve; cell line not stated here;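 also: intracellular cAMP measured with PDE inhibitor Ro 20-1724 present during compound exposure; potency is read from the fitted curve at half-maximal effect; % is scaled to controls: 0 for no effect and ±100 for the full control effect; nearly all actives have a fitted effect of over 65% in size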
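Cells in G418 medium, seeded 16-24 h, 37C; buffer exchange to DPBS + 1 mM CaCl2, 0.5 mM MgCl2, 0.05% BSA; cpds in DMSO + […] (300 uM stock), 30 min 37C; HTRF cAMP detection.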
Sfp inh – Sfp phosphopantetheinyl transferase inhibition; Q9F4F7; Biochemical Sfp PPTase activity, qHTS; Potency, µM, for the others: max response, negative = inhibition, hits mostly inhibitors; actives 3.5% (n = 310,000); active = well fitted inhibition curve with a large enough effect; inconclusive = small, poorly fitted or top-dose-only effect, or another doubt; inactive = no such curve, though single readings can be large or run the other way;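 also: the enzyme is Sfp with the accession as filed and its product quenches rhodamine fluorescence; potency is read from the fitted curve at half-maximal effect; 0% = enzyme reaction without inhibitor and -100% = no enzyme wells; top concentration of the series not given in the record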
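After 15 min at room temperature with compound, 15 nM Sfp received 5 uM rhodamine-CoA plus 12.5 uM BHQ-2-ybbR (50 mM Hepes pH 7.6, 10 mM MgCl2). Rate came from the fluorescence difference over 30 min, ex 525/em 598 nm.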
TRPV1 PAM – human TRPV1 potentiation; actives 0.02% (n = 320,000); TRPV1-expressing cells, Fluo-8 calcium influx, capsaicin EC20 potentiation; host cell line not named in the record; control for the full effect not named in the record; Q8NER1; AID 540277; potentiation, % at 8.33 µM; active means potentiation above 80%; inconclusive means 30% to 80%; inactive means below 30%; also: 0% is about no effect
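Fluo-8 calcium influx in TRPV1-expressing cells, kinetic read (ex 480/em 520 nm). Compound added and read 3 min for agonist activity, followed by capsaicin at EC20 final and 2 min further read for enhancement.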
ClpP mod – qHTS Assay for Activators of ClpP | AID 651965, 2013 | actives 1.9% (n = 340,000) | ATP-dependent Clp protease proteolytic subunit (Bacillus subtilis (strain 168)), P80244 | Potency, µM (top dose mostly 57.5 µM), without a hit: at the top dose activity change, negative = active | purified B. subtilis ClpP, FRET peptide cleavage, 20 min; active = well fitted falling curve with a large enough effect; inconclusive = small, poorly fitted or top-dose-only effect; inactive = no such curve, though single readings can be large or run the other way; also: potency is read from the fitted curve at half-maximal effect; the source files actives as falling curves though it sought activators and does not explain the sign; nearly all actives have a fitted effect of over 65% in size; many hits overshoot -100%
Target sequence (P80244 whole entry, looked up): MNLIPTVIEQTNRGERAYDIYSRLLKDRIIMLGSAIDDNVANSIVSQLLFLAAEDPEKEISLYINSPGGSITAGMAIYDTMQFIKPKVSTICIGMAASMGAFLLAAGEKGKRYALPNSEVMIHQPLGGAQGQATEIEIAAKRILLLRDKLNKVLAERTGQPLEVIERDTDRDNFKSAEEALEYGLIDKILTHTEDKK
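FRET quenching reversal measured ClpP activation: 10 microg/mL B. subtilis ClpP at pH 8 with the FRET-FV decapeptide, read at 430 nm after 320 nm excitation. The 20-min minus 0-min signal was scaled between DMSO/no-enzyme wells and ADEP (5.8 microM final).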
Starred values were filed as active, the others as inactive; ? = inconclusive; · = not tested or not shown; & = joins results of further samples; [ ] = another dose, or the depositor's remark.

Below each compound – D2 PAM	Menin-MLL FL inh	gsp agonist	gsp antag	Sfp inh	TRPV1 PAM	ClpP mod
Cc1ccc(OCc2nnc(SCc3nc4ccccc4[nH]3)n2Cc2ccco2)cc1
    -11	1.0	-1%	?	13%	5	-4.0%
CCCNC(=O)c1ccccc1NC(=O)CN(c1ccccc1)S(=O)(=O)N(C)C
    -9	-7.7	-15%[15.4 µM]	7%	13%	-14	·
CN(NC(=O)c1ccc(Cl)cc1)c1cccc(Cl)n1
    -9	-0.5	-23%	-11%	9%	-5	-3.0%
COc1cc([N+](=O)[O-])c(OC)cc1SCc1n[nH]c(=S)n1-c1ccc(C)cc1
    -14	0.4	-3%[15.4 µM]	-9%	-29%	1	1.3%
Cn1c(=O)c2sccc2n(Cc2cccc(Br)c2)c1=O
    -3	-0.2	-24%	-24%	-3%	16	·
CN(C)C(=O)CSc1nnc(Cc2ccccc2)n1Cc1ccco1
    20	1.3	-1%	2%	-4%	11	-2.1%
Cc1ccc(N/N=C2/CCCNC2=O)cc1
    -28	-0.6	6%	-5%[15.4 µM]	1%	3	-5.8%
COc1cc(/C=C(/NC(=O)c2ccc(Cl)cc2Cl)C(=O)O)cc(OC)c1OC
    1	4.9	0%	8%	1%	-3	0.2%
CC(=O)[C@@H]1[C@@H]2C(=O)N(Cc3ccccc3)C(=O)[C@@H]2C2c3ccccc3C=CN21 (stereo not given in full)
    0	?	-2%	10%	-13%	1	-8.5%
Cc1ccc(C(C(=O)NC2CCCC2)N(Cc2cccs2)C(=O)CNC(=O)c2cccs2)o1 (stereo not given)
    -11	4.8	-6%	-18%	16%	3	-0.1%
Cn1c(SCC(=O)c2ccc3c(c2)OCCO3)nnc1C(F)(F)F
    4	0.2	-6%	9%	-14%	-4	1.0%
O=C(c1cnn2ccccc12)N1CCN(C2CCCCC2)CC1
    -7	5.4	-54%[inhibitor]	-4%	9%	-7	4.8%
COc1cc(C(C(=O)NCC2CCCO2)N(C(=O)Cn2nnc3ccccc32)c2ccc(OC)c(OC)c2)ccc1O (stereo not given)
    1	-0.2	2%[15.4 µM]	-4%	15%	12	·
O=C(O)c1cc(-c2ccc(N3CCOCC3)cc2)nn1-c1ccc(F)cc1
    -5	1.7	0%[15.4 µM]	-5%	13%	0	·
Cn1c(N)c(C(=O)COC(=O)C2CCCN2C(=O)c2cccs2)c(=O)n(C)c1=O (stereo not given)
    5	1.8	36%[15.4 µM]	·	16%	-7	·
CC(=O)OCCCNc1cc(Sc2ccc(C)cc2)c2nonc2c1[N+](=O)[O-]
    -10	3.4	-4%	-22%	11%	5	1.8%
CCOc1ccc(S(=O)(=O)N2CCCC2)c2ccccc12
    -11	·	-47%[inhibitor]	·	·	·	-1.0%
Cc1nnc(N/N=C/c2cccc(C(F)(F)F)c2)n1N
    -3	-0.4	-1%[15.4 µM]	15%	7%	-22	-1.2%
CC(C)N1CCN(S(=O)(=O)c2ccccc2)c2ccccc21
    -8	·	0%	-15%	·	·	·
O=C(NCc1n[nH]c(=S)n1-c1ccc(Br)cc1)c1ccc(S(=O)(=O)N2CCOCC2)cc1
    -9	3.2	?	6%	0%	4	·
Cc1ccc(OCCCC(=O)NNC(=O)c2ccccn2)cc1
    -21	·	?	7%	·	·	-2.6%
CCc1ccc(S(=O)(=O)c2nnn3c2nc(NCCNC(C)=O)c2ccccc23)cc1
    -3	-7.1	26%[15.4 µM]	-6%	-14%	?	·
CCc1ccc(-c2cc(C(=O)NN3CCN(C)CC3)c3ccccc3n2)cc1
    -20	-8.4	-7%	2%	17%	2	32µM*
Cc1cccc2c1NC(=O)C2=Nc1ccc(Cl)cc1
    -13	0.0	-1%	5%	-4%	-4	·
FC(F)(F)c1cc(-c2ccccc2)nc(N2CCOCC2)n1
    -24	4.9	15%	2%	7%	-8	-6.3%
CCc1ccc2c(COC(=O)C3CSC4(C)CCC(=O)N34)cc(=O)oc2c1 (stereo not given)
    1	·	?	?	·	-14	-17%
O=C(NCCOc1ccc(F)cc1)C1CCC(=O)N(CCc2ccccn2)C1 (stereo not given)
    -31	-1.6	-2%[15.4 µM]	12%	12%	-9	10%
O=C(CSc1ncn[nH]1)N/N=C/c1ccc(Br)cc1
    -7	-0.2	-12%	0%	10%	-4	0.2%
COc1ccc(CCN(Cc2cc3cc(C)c(C)cc3nc2Cl)C(=O)C2CC2)cc1
    -17	0.5	-52%[inhibitor]	-5%	-2%	-5	-1.6%
COC(=O)Nc1cc([N+](=O)[O-])ccc1OC
    -6	1.1	?	5%	2%	10	-1.1%
CCOC(=O)NC(Nc1cc(C)on1)(C(F)(F)F)C(F)(F)F
    9	-0.8	-14%	-7%[15.4 µM]	-5%	-5	2.9%
CCn1c(C)c(C(C)=O)c(NCc2ccccc2)nc1=S
    -4	3.4	?	5%	-1%	-5	-3.6%
CN(C)/C=N/S(=O)(=O)c1ccc(Cl)c(Cl)c1
    3	3.9	-14%	3%	6%	-17	·
COC(=O)[C@@]1(C)[C@H]2C(=O)N(C)C(=O)[C@H]2[C@H]2CN=C(SC)N21
    6	·	·	15%	·	·	0.4%
CC(C)NC(=O)c1ccc(COCC(F)(F)C(F)F)cc1
    -15	1.6	-9%	3%	-10%	-2	-0.6%
CCN(CC)CCNC(=O)C1CCCCN1S(=O)(=O)c1cccc([N+](=O)[O-])c1 (stereo not given)
    3	-4.1	7%[15.4 µM]	31%[activator]	?	-17	·
C/C(=N\NC(=O)c1ccc([N+](=O)[O-])c(C)c1)c1ccccc1Cl
    -20	3.2	13%	-12%	6%	7	0.4%
COc1ccc(-c2nnc3ccc(SC(C(C)=O)C(C)=O)nn23)cc1OC
    -3	-2.3	-18%	4%	-28%	10	1.9%
Cc1c(C(=O)N2CCN(c3ccccn3)CC2)oc2c(F)cccc12
    -2	-3.8	-7%	-3%	7%	0	·
CCOc1ccc2oc(C(=O)N(C)CCc3ccc(OC)c(OC)c3)c(C)c2c1
    -1	·	2%	14%	·	-4	-8.4%
c1cnc(N2CC[N+]3(CCCC3)CC2)nc1
    -11	0.2	2%	6%	13%	4	?
COc1ccc(NC(=O)CCOc2ccccc2)c(OC)c1
    18	-1.1	-14%	-10%	-1%	6	-0.7%
COC(=O)Cc1c(C)c2ccc(OCc3nn[nH]n3)c(C)c2oc1=O
    -2	3.0	?	-5%	5%	8	?
COc1ccccc1/C=C/CN1CCC(Oc2cc(C(=O)NC3CC3)ccc2OC)CC1
    1	·	-69%[inhibitor]	8%	13%	2	2.2%
O=C(Nc1ncccn1)c1ccc([N+](=O)[O-])cc1
    -15	2.1	?	9%	6%	-29	2.0%
O=C(NCCOc1ccccc1Cl)c1ncn[nH]1
    -3	2.7	-2%[15.4 µM]	-14%	9%	8	·
CC(CNC(=O)CN(C)CC(=O)Nc1ccccc1Br)c1ccccc1 (stereo not given)
    8	·	-12%	4%	·	21	-0.6%
CCNC(=S)Nc1ccc(NC(=O)c2ccccc2O)cc1
    -11	-0.3	-4%[15.4 µM]	1%	6%	-5	-1.3%
COc1ccccc1CNC(=O)Cn1nnnc1CN(C)C(C)C
    -10	0.8	6%	-8%	20%	3	-3.2%
O=C(O)c1ccc(S(=O)(=O)NC2CCCc3ccccc32)cc1 (stereo not given)
    -23	1.7	7%	-13%	0%	10	0.9%
N#Cc1ccc(N=c2ssnc2Cl)cc1
    -6&-21	2.8	-28%&14%	-25%&-5%	8.9µM*	-1&2	1.5%&1.6%
Cc1ccc(C(=O)O)cc1NCc1ccncc1
    -6	-0.3	12%[15.4 µM]	-9%	15%	-4	-0.2%
FC(F)(F)c1n[nH]c(=S)n1/N=C/c1ccco1
    -9	0.5	12%[15.4 µM]	-21%	-25%	4	-0.2%
Cn1c(N=Nc2ccccc2)nc2ccccc21
    -44	·	-3%	5%	?	-46	-1.7%
O=C(CCNC(=O)c1ccccc1Cl)NNC(=O)c1ccccc1O
    -21	·	-14%	7%	·	14	?
COC(=O)CN(c1cc(OC)ccc1OC)S(=O)(=O)c1ccc(OC)c(OC)c1
    -23	2.1	-31%[inhibitor]	-1%	13%	3	0.5%
Cc1ccc2[nH]c(=O)c(C(c3nnnn3CC3CCCO3)N3CCOCC3)cc2c1 (stereo not given)
    -2	4.6	9%	2%	-9%	13	22µM*
CCCCN1C(=O)C(=O)N(CC(=O)c2ccc[nH]2)C1=O
    -7	·	4%[15.4 µM]	11%	·	5	2.5%
CCc1cccc(NC(=O)c2sc3nc4n(c(=O)c3c2C)CCC4)c1
    2	·	?	-12%	-4%	12	-4.9%
COc1ccc2nc(NC3=NCN(CC4CCCO4)CN3)nc(C)c2c1 (stereo not given)
    ·	-1.3	·	·	17%	-2	·

(list continues)
Below each compound – D2 PAM	Menin-MLL FL inh	gsp agonist	gsp antag	Sfp inh	TRPV1 PAM	ClpP mod
COCCCNC(=O)C1CCN(C(=O)c2cc3sccc3n2Cc2ccc(F)cc2)CC1
    -8	1.5	-32%[inhibitor]	-23%	-2%	11	-1.0%
COC(=O)c1ccc(Oc2c(F)c(F)nc(N3CCOCC3)c2F)cc1
    -9	-0.8	2%[15.4 µM]	2%	-27%	-14	·
Cc1cccc(N=C2NC(=O)/C(=C/C=C/c3ccco3)S2)c1C
    -26	?	0%	-7%	40µM*	-21	-27%
O=C(COC(=O)c1cccc(-n2cnnn2)c1)c1ccc(F)cc1
    0	·	5%[15.4 µM]	9%	·	-5	1.6%
Cn1c(=O)c2c(nc(SCC(=O)Nc3ccccc3)n2C)n(C)c1=O
    -1	0.5	?	3%	17%	-22	1.6%
Cc1csc(=O)n1CC(=O)OCC(=O)Nc1cc(S(=O)(=O)N2CCOCC2)ccc1Cl
    -2	·	-4%	10%	·	-6	-2.9%
CCOc1cc(C2c3c(n[nH]c3C)C(=O)N2c2ccc(C)cc2)ccc1O (stereo not given)
    -5	3.6	?	-4%	-8%	-3	1.3%
